ALR H2O2 inh = blocks human ALR sulfhydryl oxidase activity | inhibition, % (no concentration beside the values) | actives 3.8% (n = 290,000) | P55789 | purified ALR, DTT oxidation, H2O2 HRP-luminol luminescence;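 active means mean and each replicate at 75% or more; inconclusive means only one of the two met; inactive means neither met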;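 further: stock transfer was 7.5 nL into about 7.5 µL; 0% = neutral wells and 100% = wells with inactivated enzyme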
Target sequence (P55789 whole entry, looked up): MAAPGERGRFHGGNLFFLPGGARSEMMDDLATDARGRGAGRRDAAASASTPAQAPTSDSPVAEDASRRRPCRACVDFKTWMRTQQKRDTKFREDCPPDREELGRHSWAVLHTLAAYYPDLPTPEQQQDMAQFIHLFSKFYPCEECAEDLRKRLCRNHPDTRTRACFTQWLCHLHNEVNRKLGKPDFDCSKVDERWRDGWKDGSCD
FGF22 binding = FGF22 (human) thermal shift binding. Q9HCT0. calls only at 9.99 µM. AID 651658. actives 1.5% (n = 340,000). recombinant FGF22 thermal shift, SYPRO orange fluorescence; percent of sucrose octasulfate shift, DMSO zero;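 active means melting point raised past a set limit in the mean and every replicate; inconclusive means no clear call; three in four hits are not shown here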
Target sequence (Q9HCT0 whole entry, looked up): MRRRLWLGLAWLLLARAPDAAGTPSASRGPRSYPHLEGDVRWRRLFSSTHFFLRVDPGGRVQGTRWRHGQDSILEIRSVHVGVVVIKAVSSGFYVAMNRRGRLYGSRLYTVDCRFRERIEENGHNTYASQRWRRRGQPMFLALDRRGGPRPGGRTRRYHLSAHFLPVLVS
rRNA inh HTS = selective bacterial rRNA inhibition in E. coli | actives 1.6% (n = 350,000) | E. coli WT GFP vs humanized-ribosome RFP mutants, fluorescence, 24 h; hits give low values; DMSO median 0, no signal -100 | AID 720706 | GFP signal change (wild-type ribosome), % (concentration not given with the values);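 active means significant combined selectivity score with lowered wild-type GFP, culture density cut under 30%, mutant RFP and density less affected; inactive means any of these conditions unmet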; further: one replicate is shown; some compounds called inactive have numbers as strong as hits
E coli growth = blocks Escherichia coli growth | OD600, 23 h; hits give low values | OD600 absorbance (test concentration not listed) | actives 0.21% (n = 330,000);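 active means OD600 absorbance below the run mean of sample wells minus 3.6 SD, in any replicate, cut at about 0.56 in these data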;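 further: stock transfer was 300 nL into about 60 µL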
Vif TR-FRET = HIV-1 Vif–A3G interaction blockers – biochemical, TR-FRET, GST-Vif 1-94, biotin-A3G peptide, dose response retest, primary screen (AID 1117319) | TR-FRET GST-Vif / biotin-A3G peptide binding; higher % means a stronger effect; test concentration not given here; strong numbers were not always called active | one-dose inhibition, %; IC50 in µM for titrated hits | actives 0.57% (n = 260,000);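 active means above the screen mean plus three standard deviations and confirmed in dose response; inconclusive means results disagree or hit not tested in dose response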;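 further: Vif residues 1-94 fused to GST binding biotinylated APOBEC3G peptide 110-148; 0% = full assay without inhibitor and 100% = GST in place of GST-Vif; retest series ran down from 100 µM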
HNF4A DNA FP = change in binding of human HNF4 alpha to DNA; HNF4a-FITC DNA binding, fluorescence polarization, 1 h; activity change, % at 10 µM; actives 0.3% (n = 360,000); AID 1224865; in the data active means activity change above about 30%, passing the limit was not always enough;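 further: controls were the assay level and a saturating level of protein; the project sought stronger binding though the title names inhibitors; some compounds called inactive have numbers as strong as hits; positive values seem to mean higher polarization but the record does not say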
MLL AF4-AF9 inh = MLL-AF4/AF9 protein interaction inhibition; P42568; AlphaScreen, biotin-AF4 peptide binding to FLAG-AF9; inhibition, % at 10 µM; AID 651704; actives 0.47% (n = 350,000);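 active means every replicate reaching a set inhibition limit, whatever the replicate mean, cut at about 25% in these data; inconclusive means mean inhibition reaches that limit but some replicates miss it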;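 further: 0% = plate neutral control median and 100% = total signal loss; the record names both 10 and 1 µM as test concentration; the first replicate is given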
Target sequence (P42568 whole entry, looked up): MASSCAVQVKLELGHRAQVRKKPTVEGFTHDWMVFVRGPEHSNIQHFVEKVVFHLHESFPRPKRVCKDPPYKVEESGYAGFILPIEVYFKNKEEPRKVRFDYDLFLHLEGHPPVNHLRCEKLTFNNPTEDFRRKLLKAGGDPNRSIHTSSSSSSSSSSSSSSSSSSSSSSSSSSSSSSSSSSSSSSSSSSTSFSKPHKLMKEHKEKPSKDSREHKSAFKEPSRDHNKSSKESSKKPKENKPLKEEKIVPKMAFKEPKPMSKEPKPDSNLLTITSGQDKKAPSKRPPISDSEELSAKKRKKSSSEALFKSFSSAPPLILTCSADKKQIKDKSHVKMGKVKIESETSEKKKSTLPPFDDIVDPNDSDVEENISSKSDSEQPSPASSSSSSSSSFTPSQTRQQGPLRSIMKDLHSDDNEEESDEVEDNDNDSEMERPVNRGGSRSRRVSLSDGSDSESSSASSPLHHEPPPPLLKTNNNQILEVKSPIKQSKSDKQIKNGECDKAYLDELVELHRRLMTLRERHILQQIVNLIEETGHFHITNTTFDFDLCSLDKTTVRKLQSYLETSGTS
rRNA inh HTS OD600 = second read-out of rRNA inh HTS, no call of its own (marks repeat the call); OD600 change, %; measured here: OD600 growth;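 optical density of the mix in the first replicate; 0 = DMSO median and -100 = no signal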
rRNA inh HTS RFP = further read-out of rRNA inh HTS, marked with its call; RFP signal change, %; measured here: RFP humanized mutant strains;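 first replicate; 0 = DMSO median and -100 = no signal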
* = called active by the depositor; i = inactive; ? = inconclusive; nt = not tested or not shown; & = joins results of further samples. Not all compounds are listed; count on the stated rates, not on these rows.

Values run as follows: ALR H2O2 inh	FGF22 binding	rRNA inh HTS	rRNA inh HTS OD600	rRNA inh HTS RFP	E coli growth	Vif TR-FRET	HNF4A DNA FP	MLL AF4-AF9 inh
> Cc1ccc2cc(COC(=O)c3ccncc3)c(=O)[nH]c2c1
 : 0	nt	nt	nt	nt	0.73	-4%	2.1	nt
> Cc1ccc(C(NC(=O)N2CCCC2)C(Cl)(Cl)Cl)cc1F (configuration not stated)
 : -11	i	12	-10	-2.1	0.68	1%	-3.7	0.6
> COc1nc(Nc2ccc([N+](=O)[O-])cc2)nc(NC2CCCCC2)n1
 : -1	i	15	2	3.6	0.69	-7%	-1.4	11
> CCn1c(SCC(=O)N2CCCCC2)nnc1-c1ccc(S(=O)(=O)N2CCN(C)CC2)cc1
 : nt	nt	nt	nt	nt	0.69	26%	-0.3	nt
> COCC(=O)Nc1ccc2c(c1)C(=O)N(C)[C@H]1CC[C@@H](CC(=O)NCC3CCCCC3)O[C@@H]1CO2
 : nt	i	1	1	-2.2	nt	nt	nt	-1.0
> CC(=O)NC(c1cc(F)c2cccnc2c1O)C1CC1 (configuration not stated)
 : 35	i	-18	-35	-7.5	0.68	nt	9.8	nt
> O=C(CCN1C(=O)c2ccncc2C1=O)Nc1ccc2c(c1)OCCO2
 : -7	nt	nt	nt	nt	0.75	2%	4.6	nt
> Cc1c(C(=O)N(Cc2ccncc2)CC2CCCO2)oc2c(F)cccc12 (configuration not stated)
 : -4	i	-3	-6	1.0	0.67	nt	-3.2	1.7
> CCCC(C)(C)C(=O)N1CCC1(C)C(=O)NS(=O)(=O)c1ccc(Br)cc1 (configuration not stated)
 : nt	i	-6	-1	2.6	nt	nt	-0.3	-0.8
> O=C(CSC1=NCCS1)N1CCCCCC1
 : -3	nt	nt	nt	nt	0.75	2%	0.6	nt
> O=C1OC(c2cccs2)Sc2ccccc21 (configuration not stated)
 : nt	i	40	10	-2.3	nt	nt	-0.5	-3.3
> O=C(NCCO)/C(=C/c1ccc2c(c1)OCO2)NC(=O)c1ccc(Br)cc1
 : 1	i	1	-5	-4.4	0.7	4%	-0.3	-5.6
> C[C@@H]1CN([C@@H](C)CO)C(=O)c2cc(NC(=O)Nc3ccccc3)ccc2O[C@@H](C)CCCCO[C@H]1CN(C)C
 : nt	i	4	6	-3.5	nt	nt	nt	-6.0
> CN(c1ccccc1C(=O)Nc1ccc(S(=O)(=O)N2CCOCC2)cc1)S(C)(=O)=O
 : 0	nt	nt	nt	nt	0.66	5%	2.9	nt
> COc1ccc(C2(CNC(C)=O)CCOCC2)cc1OC
 : -6	i	6	1	-0.9	0.74	-9%	-1.4	-3.2
> Cc1cccc(N(CC(=O)O)CC(=O)O)c1
 : 17	nt	nt	nt	nt	0.65	nt	4.1	nt
> O=C(CN1CCOCC1)NCC[C@H]1CC[C@H](NC(=O)Nc2ccc(F)cc2)[C@@H](CO)O1
 : nt	i	0	4	-1.1	nt	nt	nt	0.8
> CC(=O)c1ccc(NC(=O)Cn2cnc(S(=O)(=O)N3CCOCC3)c2)cc1
 : -2	i	15	10	-0.9	0.71	-2%	-0.8	0.9
> C[C@H](CO)N1C[C@H](C)[C@H](CN(C)Cc2cccc(C(F)(F)F)c2)Oc2ncc(C#Cc3ccc(F)cc3)cc2C1=O
 : nt	i	0	3	-4.3	nt	nt	nt	-8.1
> COc1ccc(OC)c(NS(=O)(=O)c2ccc(NC(=O)c3ccc(NS(C)(=O)=O)cc3)cc2)c1
 : -40	nt	2	5	-0.7	nt	8%	-5.5	2.2

Sorted by count of non-hydrogen atoms (lowest first): some entries from above.
Values run as follows: ALR H2O2 inh	FGF22 binding	rRNA inh HTS	rRNA inh HTS OD600	rRNA inh HTS RFP	E coli growth	Vif TR-FRET	HNF4A DNA FP	MLL AF4-AF9 inh
> COc1ccc(C2(CNC(C)=O)CCOCC2)cc1OC
 : -6	i	6	1	-0.9	0.74	-9%	-1.4	-3.2
> COc1nc(Nc2ccc([N+](=O)[O-])cc2)nc(NC2CCCCC2)n1
 : -1	i	15	2	3.6	0.69	-7%	-1.4	11
> C[C@H](CO)N1C[C@H](C)[C@H](CN(C)Cc2cccc(C(F)(F)F)c2)Oc2ncc(C#Cc3ccc(F)cc3)cc2C1=O
 : nt	i	0	3	-4.3	nt	nt	nt	-8.1

Next compounds follow:
Values run as follows: ALR H2O2 inh	FGF22 binding	rRNA inh HTS	rRNA inh HTS OD600	rRNA inh HTS RFP	E coli growth	Vif TR-FRET	HNF4A DNA FP	MLL AF4-AF9 inh
> COc1ccc(C)cc1NC(=O)CN1CCN(S(=O)(=O)c2ccc(F)cc2)CC1
 : -11	nt	nt	nt	nt	0.74	1%	-1.7	nt
> Cc1ccc(-n2ncc3c(Nc4c(C)n(C)n(-c5ccccc5)c4=O)ncnc32)c(C)c1
 : -20	nt	nt	nt	nt	0.68	?	3.5	nt
> COc1cccc(S(=O)(=O)N2C[C@H](O)COC[C@@H]3O[C@H](CC(=O)N4CCN(C)CC4)CC[C@H]32)c1
 : nt	i	1	1	1.9	nt	nt	nt	-2.6
> O=C(c1cccc(S(=O)(=O)N2CCN(c3ccc(F)cc3)CC2)c1)N1CCCC(C(F)(F)F)C1 (configuration not stated)
 : 1	i	1	-17	-2.6	0.7	nt	-1.1	13
> CCOc1ccc(NC(=O)CN(C)CC(=O)Nc2ccc(F)c(F)c2F)cc1OCC
 : -5	i	0	3	-2.5	0.71	-2%	2.9	4.1
> Cc1cc(C(=O)COc2ccc(F)cc2Br)c(C)n1C1CC1
 : nt	i	-35	-39	-3.5	0.7	1%	-4.0	1.1
> C[C@@H]1CN([C@@H](C)CO)C(=O)c2cccc(NC(=O)CCCCCC(=O)Nc3ccccc3N)c2O[C@@H]1CN(C)S(=O)(=O)c1ccc(F)cc1
 : nt	i	0	8	-6.2	nt	nt	nt	-1.8
> CCN(CC)CCN(C(=O)C1CCCCC1)c1nc2cc3c(cc2s1)OCO3
 : -5	nt	-18*	2.5*	-2.0*	0.63	nt	2.4	18
> Cc1[nH]n2c(=O)c3c(nc2c1-c1cccc2ccccc12)CCC3
 : -8	nt	nt	nt	nt	0.71	0%	2.5	nt
> Cc1ccc(NC(=O)CN(C)CC(=O)Nc2ccccc2-c2ccccc2)cc1
 : -3	nt	-36	-58	-0.2	0.69	8%	0.0	5.2
> O=C(NCC1CCCCC1)c1ccccc1[N+](=O)[O-]
 : -1	i	3	7	-1.1	0.69	nt	-0.1	-1.8
> CCOC(=O)c1c(C)[nH]c(C)c1C(=O)COC(=O)c1ccc(Cl)nc1
 : nt	i	-11	-2	3.6	0.68	11%	0.1	2.6
> CCC(C)NC(=O)CS(=O)(=O)Cc1nc(-c2cccc(OC)c2)oc1C (configuration not stated)
 : 99*	i	-3	0	-3.2	0.74	-1%	0.8	0.6
> C[C@@H]1CN([C@H](C)CO)C(=O)c2cccc(NC(=O)c3ccc(-c4nccs4)cc3)c2O[C@H]1CN(C)C
 : nt	i	-4	-10	1.1	nt	nt	nt	3.2
> Cc1ccc(S(=O)(=O)N(C)C[C@H]2Oc3cc(Br)ccc3S(=O)(=O)N([C@@H](C)CO)C[C@H]2C)cc1
 : nt	i	-5	-21	-1.5	nt	nt	nt	-0.2
> COc1ccc(C(O)c2ncc(-c3ccc(Cl)cc3)[nH]2)cc1 (configuration not stated)
 : nt	i	2	-9	3.5	nt	nt	0.3	-5.8
> COc1ccc(NC(=O)Nc2nnc(N3CCC(C)CC3)s2)cc1OC
 : 4	i	6	11	-0.1	0.74	3%	-3.4	4.9
> COC(=O)CCC(=O)Nc1cccc(Br)c1
 : -13	nt	nt	nt	nt	0.79	-3%	-1.6	nt
> COc1ccc2c(c1OC)C(=O)OC2N1C(=O)CC[C@H]1C(=O)Nc1ccc2c(c1)OCO2 (some centres not stated)
 : 1	i	nt	nt	nt	0.79	nt	-1.3	12
> O=C(COC(=O)Cc1ccc([N+](=O)[O-])cc1)NC1CCCCCC1
 : 4	i	22	12	2.2	0.69	nt	4.7	0.7
> O=[N+]([O-])c1cc(-c2csc(NC(CO)c3nc4ccccc4n3CCOCCO)n2)ccc1Cl (configuration not stated)
 : 6	i	-1	2	1.5	0.69	nt	-1.2	-2.5
> O=C(NCC[C@H]1CC[C@@H](NS(=O)(=O)Cc2ccccc2)[C@@H](CO)O1)C1CCCCC1
 : nt	i	-3	-3	-2.1	nt	nt	nt	-0.8
> COc1cc(CN2CC3(CN(C)C3)c3c([nH]c4cc(OC)ccc34)[C@@H]2CO)cc(OC)c1
 : nt	i	0	4	2.1	nt	nt	nt	18
> O=C(COC(=O)C1COc2ccccc2O1)NC(=O)Nc1ccc2c(c1)OCCO2 (configuration not stated)
 : -15	nt	nt	nt	nt	0.74	4%	1.8	nt
> CCOC(=O)Cn1cnc2c(cnn2-c2ccc(Cl)cc2)c1=O
 : -3	nt	nt	nt	nt	0.72	-6%	-2.8	nt
> Cc1cc(C)c2cc(CN(CCO)Cc3nnnn3Cc3ccccc3)c(=O)[nH]c2c1
 : 3	nt	nt	nt	nt	0.69	-5%	-2.0	nt
> CCOC(=O)c1cc(OCC)c2c(ccc3ccccc32)n1
 : nt	i	-3	3	0.1	nt	-5%	-0.1	-0.9
> CC(NC(=O)C12CC3CC(CC(O)(C3)C1)C2)c1ccc(Cl)cc1Cl (configuration not stated)
 : -3	i	9	9	2.0	0.7	nt	-0.6	-1.5
> CC(C)C1=CC(=Nc2ccc(S(N)(=O)=O)cc2)C=C(C(C)C)C1=O
 : 99*	i	2	10	0.0	0.66	nt	-1.9	6.1
> CC(C)NC(=O)N(C)C[C@@H]1OCCCC[C@@H](C)Oc2ccc(NS(=O)(=O)c3cccs3)cc2C(=O)N([C@H](C)CO)C[C@H]1C
 : nt	i	-2	0	-1.5	nt	nt	nt	-3.5
> O=C(ON=C1CCN(S(=O)(=O)c2ccccc2)CC1)c1ccc(F)cc1
 : -20	nt	nt	nt	nt	0.73	11%	4.2	nt
> Cc1ccc(-c2nnn(CC(=O)N(CC3CCCO3)C(C(=O)NC3CCCC3)c3ccc(O)cc3)n2)o1 (configuration not stated)
 : -50	i	8	-3	6.0	0.67	-3%	1.3	0.0
> Cc1ccc2c(CC(=O)OCc3nc(N)nc(Nc4ccccc4C)n3)coc2c1
 : -28	nt	nt	nt	nt	0.71	?	-0.3	nt
> CCC(=O)N1CCc2cc(OC)c(OC)cc2C1COc1ccc(C(=O)OC)cc1 (configuration not stated)
 : 36	nt	nt	nt	nt	0.69	-4%&-3%	-2.5	nt
> COC(=O)c1nn(-c2ccc(OC)cc2)c(=O)c2c(N)sc(C)c12
 : -22	i	7	5	-0.9	0.69	5%	1.6	-8.0
> CCc1nc2ccc(C(=O)NC3CCN(Cc4ccccc4)CC3)cn2c1N(C)Cc1ccc(N(C)C)cc1
 : nt	i	-2	-4	-2.0	nt	nt	0.3	52*
> O=C(O)C1=C[C@H](c2coc3ccccc3c2=O)C[C@H](OCCCCO)O1
 : 2	i	18	8	-3.0	nt	13%	-2.6	-2.3&-10&-4.0
> O=C(NCC(=O)N1CCC(Cc2ccccc2)CC1)c1ccccc1F
 : nt	i	-34	-64	-8.3	nt	-4%	-2.6	-2.2
